Measles inh: inhibitors of measles virus growth in infected cells. 33,000 compounds, 0.1% hits. infected Vero cells, GFP fluorescence, 64 h; hits give low values. z-score (concentration not given with the values);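 active = z-score under -3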;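 also: score is relative to mean and SD of the compound wells of a plate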
Numbers without * were called inactive. An excerpt; rates above refer to the full screens.

SMILES	Measles inh
O=C(NCCN1CCN(c2ccccc2)CC1)c1cccn2c(=O)c3cc(Cl)ccc3nc12	-0.07
COC(=O)CNC(=O)c1sc2ncn(CC(=O)N3CCCCC3)c(=O)c2c1C	-1.1
CC(=O)Nc1ccc(N2C(=O)C3C4C=CC(CC4)C3C2=O)cc1 (configuration not stated)	0.04
CC(=O)C1=C(O)C(=O)N(CCN2C(=O)C(O)=C(C(C)=O)C2c2ccccc2)C1c1ccccc1 (configuration not stated)	0.19
Oc1ccc(C2=Nn3c(nnc3-c3ccccc3Cl)SC2)cc1O	-0.32
CN1CCc2c(sc3c2C(=O)NC(c2ccc(-c4ccc(F)cc4)o2)N3)C1 (configuration not stated)	2.2
CCOc1cc(C2N3CCc4ccccc4C3CN2S(=O)(=O)c2ccc(C)cc2)ccc1OC (configuration not stated)	-0.13
Cn1c(=O)c2c(nc(CN3CCC(Cc4ccccc4)CC3)n2CCc2ccccc2)n(C)c1=O	-0.04
O=C(CSc1cn(Cc2ccc(Cl)cc2)c2ccccc12)N1CCCc2ccccc21	1.1
O=C(c1ccc([N+](=O)[O-])o1)N1CCN(CC=Cc2ccccc2)CC1	-0.43
COc1ccccc1Nc1ncc(C(=O)Nc2cc(OC)c(OC)c(OC)c2)c2ccccc12	-0.6
CC(C)c1ccc(C#N)c(SCC(=O)N2c3ccccc3Sc3ccccc32)n1	0.26

Among those listed so far, these contain a Cl atom.
SMILES	Measles inh
O=C(NCCN1CCN(c2ccccc2)CC1)c1cccn2c(=O)c3cc(Cl)ccc3nc12	-0.07
Oc1ccc(C2=Nn3c(nnc3-c3ccccc3Cl)SC2)cc1O	-0.32
O=C(CSc1cn(Cc2ccc(Cl)cc2)c2ccccc12)N1CCCc2ccccc21	1.1

(more compounds)
SMILES	Measles inh
CCCCc1ccc(Nc2ncnc3c2cnn3-c2ccccc2)cc1	-1.3
COc1ccc(CCNC(=O)CSc2cc(=O)n(C)c3ccccc23)cc1OC	1
CCOC(=O)c1ccc(CNS(=O)(=O)c2cc(C)ccc2OC)o1	-0.12
COC(=O)c1ccc(C=Nc2ccc3oc(-c4cccc(C)c4)nc3c2)cc1	1.3
O=C(Nc1nc(-c2ccc(I)cc2)cs1)c1ccco1	-0.15
O=C(Nc1cccc(Cl)c1)c1ccc(F)c(S(=O)(=O)NC2CC2)c1	-0.98
Cc1ccc(S(=O)(=O)N(CC(=O)Nc2ccc3c(c2)OCCO3)C2CCCCC2)cc1	-0.61
CCn1c2c(c3cc(Br)ccc31)CCCC2O (configuration not stated)	-1.2
Cc1ccc(C(=O)C2=C(O)C(=O)N(Cc3cccnc3)C2c2ccc(C(C)C)cc2)o1 (configuration not stated)	0.11
Cc1ccnc(NC(c2cccc([N+](=O)[O-])c2)c2ccc3cccnc3c2O)c1 (configuration not stated)	-0.25
CCCCOc1ccc(C(=O)Nc2c3c(nn2-c2ccc(C)cc2C)CSC3)cc1	1.3
COc1cccc(NC(=O)Cc2cn(C)c3ccccc23)c1	0.05
O=C(Nc1ccc(Br)cc1)c1ccc(F)c(S(=O)(=O)NC2CCCCCC2)c1	-0.48
Cc1c(Cc2ccc(Cl)cc2)c(NCCN2CCOCC2)n2c(nc3ccccc32)c1C#N	-1.2
O=C(O)c1ccc(-n2nnnc2SCC(=O)N2CCOCC2)cc1	0.34
CC1CCN(S(=O)(=O)c2ccc(C(=O)Nc3sc4c(c3-c3nc5ccccc5s3)CCN(C(C)C)C4)cc2)CC1	5.3
O=C(CCn1c(=S)oc2ccccc21)NC1CC1	-1.9
Cc1cc(C)c2nc3c(c(N)c2c1)CCCC3	-0.58
O=C(CNS(=O)(=O)c1cccs1)Nc1cccc(C(F)(F)F)c1	-0.42
Cc1ccc(C(=O)Nc2ccccc2)cc1S(=O)(=O)Nc1ccccc1	2.5
COc1cccc(-n2c(=O)c3sccc3n(CC(=O)C(C)(C)C)c2=O)c1	0.04
Cc1ccc(C)c(CN2N=C(c3ccccc3)CCC2=O)c1	-0.44
COc1ccc(N2C(=O)c3ccccc3C2C(=O)NC2CCCC2)cc1Cl (configuration not stated)	0.37
CCCCC(CC)CNC(=O)c1ccccc1Cl (configuration not stated)	-0.01

Retrieved by structure from the entries so far (2):
SMILES	Measles inh
COc1ccc(N2C(=O)c3ccccc3C2C(=O)NC2CCCC2)cc1Cl (configuration not stated)	0.37
COc1cccc(-n2c(=O)c3sccc3n(CC(=O)C(C)(C)C)c2=O)c1	0.04

A second format for 4 compounds above:
> O=C(Nc1cccc(Cl)c1)c1ccc(F)c(S(=O)(=O)NC2CC2)c1
  Measles inh: -0.98
> COc1ccc(CCNC(=O)CSc2cc(=O)n(C)c3ccccc23)cc1OC
  Measles inh: 1
> O=C(CCn1c(=S)oc2ccccc21)NC1CC1
  Measles inh: -1.9
> O=C(NCCN1CCN(c2ccccc2)CC1)c1cccn2c(=O)c3cc(Cl)ccc3nc12
  Measles inh: -0.07

(continued)
SMILES	Measles inh
CCOC(=O)C1=C(C(F)(F)F)Nc2ncnn2C1c1ccc(C)cc1 (configuration not stated)	-0.55
O=C(c1cccc(Cl)c1)N1CCN(S(=O)(=O)c2ccc(F)cc2)CC1	-0.15
Cc1ccccc1OCC(=O)Nc1ccc2oc(-c3ccncc3)nc2c1	-0.52
CCN1CCN(c2nc3ccccc3nc2NS(=O)(=O)c2ccccc2)CC1	-0.47
Cc1ccc(Cl)cc1NS(=O)(=O)c1cccc2nsnc12	-0.6
COc1ccc(CN2C(=O)c3ccc(C(=O)O)cc3C2=O)cc1	-0.45
Cc1cc(NC(=O)c2cc(-c3ccc(Cl)cc3)on2)nn1Cc1ccc(Cl)cc1	-0.24
COC(=O)c1ccc(COc2ccc3c(C)c(C)c(=O)oc3c2C)o1	-0.22
O=C(NCc1ccccc1)c1ccc2c(c1)N(Cc1ccccc1)C(=O)c1ccccc1S2	-0.7
O=C(CSc1nc2ccccc2s1)Nc1ccccc1Oc1ccccc1	-1.2
O=C(CSc1nc(-c2ccccc2)cc(=O)[nH]1)N1CCc2ccccc2C1	-0.81
Cc1occc1-c1nc(-c2ccc(Cl)cc2)no1	-2
C=CCn1c2ccccc2n2cc(-c3ccc([N+](=O)[O-])cc3)nc12	1.2
CCOC(=O)c1[nH]c2c(c1C)C(=O)CC(c1ccccc1)C2 (configuration not stated)	0.74
CCCn1c(COc2ccc(Cl)cc2)nc2ccccc21	-1.2
Cc1ccc(S(=O)(=O)N(C)C(=Nc2ccccc2)c2ccccc2)cc1	-1
Cc1sc2ncn(CC(=O)NCCCN3CCCC3)c(=O)c2c1S(=O)(=O)N1CCC(C)CC1	0.09
O=C(Cn1c(=O)n(Cc2ccco2)c(=O)c2cc(Cl)ccc21)c1cccc(C(F)(F)F)c1	-0.41
Cc1cc(=O)oc2c1ccc1oc(C(=O)c3ccc(Cl)cc3)c(C)c12	-0.59
Cc1cc([N+](=O)[O-])ccc1-c1ccc(C=Cc2ccc3cccc(O)c3n2)o1	0.31
Cn1c(N2CCOCC2)nc2c1c(=O)n(Cc1cccc(Br)c1)c(=O)n2C	-0.24
CCCOC(=O)c1ccc(-c2n[nH]c(=O)c3ccccc23)cc1	-0.78
COc1ccc(C2C(C(=O)OCc3ccccc3)=C(C)NC3=C2C(=O)CC(C)(C)C3)c(OC)c1 (configuration not stated)	0.02
COc1ccc(C(=O)N2CC(=O)Nc3ccc(C)cc3C2c2ccc(F)cc2)cc1OC (configuration not stated)	-1.7
CC1CCC(N2C(=O)CN(C3CCCCC3)C(=O)C2c2ccc(Cl)cc2)CC1 (configuration not stated)	-0.6
O=S(=O)(Nc1ccc(OC(F)(F)F)cc1)c1cccc2cccnc12	0.8
COc1ccc(C)cc1NC(=O)c1cc(S(=O)(=O)NC2CCCCC2C)ccc1F (configuration not stated)	0.61
Cc1ccc(NC(=O)c2ccc(N(Cc3ccccc3)S(C)(=O)=O)cc2)c(C)c1	1.7
COc1ccc(NC(=O)CC2SC(N)=NC2=O)c([N+](=O)[O-])c1 (configuration not stated)	0.31
O=C(CSc1nc2c(c(=O)n1-c1ccc(Br)cc1)SCC2)NCc1ccco1	0.26
CCOc1ccc2c(c1)sc(=NC(=O)c1ccc(S(=O)(=O)N3CCCC3)cc1)n2CC	0.6
COc1ccc2nc(N3CCCC(C(=O)NCCc4ccc(OC)c(OC)c4)C3)sc2c1 (configuration not stated)	-0.29
O=C(Nc1c2c(nn1-c1cccc(Cl)c1)CSC2)c1cccc([N+](=O)[O-])c1	-0.53
CCCNC(=O)c1c(O)c2cccc3c2n(c1=O)CCC3	-0.97
COc1cc2c(cc1OC)C(COc1cc(C)cc(C)c1)N(C(=O)C(C)Oc1ccccc1)CC2 (configuration not stated)	0.3
CC(C)c1ccc(NC(=O)C(NC(=O)c2cnccn2)c2ccccc2)cc1 (configuration not stated)	-1.3
COc1cccc(-c2cc(C(=O)Nc3ccc(S(N)(=O)=O)cc3)c3ccccc3n2)c1	-0.86
Cc1onc(-c2ccccc2Cl)c1C(=O)Nc1ccc(C(N)=O)cc1	-0.31
O=C1c2ccccc2C(=Nc2ccc(Br)cc2)C1c1ccccc1 (configuration not stated)	-0.47
Cc1cc(C)c(NC(=O)CSc2nnc(-c3ccco3)n2-c2ccccc2)c(C)c1	0.33
COC(=O)C1=C(C)NC(=O)NC1c1ccc2c(c1)OCO2 (configuration not stated)	-0.02
CCCN1C(=O)SC(CC(=O)Nc2ccccc2C)C1=O (configuration not stated)	-0.28
Cc1ccc([N+](=O)[O-])cc1N1C(=O)C2C3C=CC(C4CC34)C2C1=O (configuration not stated)	1.1
CCOC(=O)c1ccc(-n2c(N)c(C(=O)NCCc3ccccc3)sc2=S)cc1	0.41
O=C(Nc1ccc(Cl)cc1)c1cnn2c1NC(c1ccco1)CC2C(F)(F)F (configuration not stated)	0.06
COc1cc(C)nc(NC(=O)NS(=O)(=O)c2c(C)cc(C)nc2Cl)n1	-1
COc1ccc(N(CC(=O)Nc2ccc(C)c(C)c2)S(=O)(=O)c2ccccc2)c(OC)c1	-0.94
Cc1ccc(S(=O)(=O)n2nc(OC(=O)c3ccc(C)c(C)c3)cc2N)cc1	-1.1
Cn1c(C(O)c2ccccc2)[n+](C)c2ccccc21 (configuration not stated)	0.99
CCC(=O)N1c2ccccc2-c2nnc(SC)nc2OC1c1ccccc1C (configuration not stated)	0.65
COc1ccccc1NC1=C(Cl)C(=O)N(c2cccc(C(F)(F)F)c2)C1=O	0.33
Cc1noc(C)c1S(=O)(=O)N1CCC(C(=O)N2CCN(c3ccc(Cl)cc3)CC2)CC1	2.1
COc1ccc(-c2nc3cc(N=CC=Cc4cccc(Br)c4)ccc3o2)cc1	-1.4
O=C(Nc1c2c(nn1-c1ccc([N+](=O)[O-])cc1)CS(=O)(=O)C2)c1ccccc1Br	-1.6
CCN1C(=Nc2cccnc2)SCC1(O)c1ccccc1 (configuration not stated)	-0.37
Cc1ccc(NC(=O)Cn2cnc3sc(C(=O)N4CCC(Cc5ccccc5)CC4)c(C)c3c2=O)cc1Cl	0.22
COC(=O)c1ccc2c(c1)NC(=O)C(N(C)C1CCCCC1)S2 (configuration not stated)	-1.1
COC(=O)C1=C(C)Nc2nnnn2C1c1ccc(OC)cc1OC (configuration not stated)	0.54
CS(=O)(=O)N(Cc1ccccc1)c1ccccn1	-0.4
O=C(CN1c2cccc3cccc(c23)S1(=O)=O)Nc1ccccc1F	6.4
(cont.)
SMILES	Measles inh
Cc1[nH]c2ccccc2c1C(Nc1nc2c(s1)CCCC2)c1ccccn1 (configuration not stated)	0.09
CCOc1ccc(-n2c(=O)c3c(C)c(C(=O)N(C)C)sc3n(CC(=O)C(C)(C)C)c2=O)cc1	-0.4
CC(C)c1ccc(NC(=O)C2CCCN(S(=O)(=O)c3cccc4nonc34)C2)cc1 (configuration not stated)	2.2
COc1cc(OC)cc(C(=O)N2CC(=O)Nc3ccc(C)cc3C2c2ccc(F)cc2)c1 (configuration not stated)	0.89
CCC(=O)N1CCc2cc(Br)cc(S(=O)(=O)CCC(=O)Nc3ccc(Br)cc3)c21	1.3
COc1ccc(N=c2scc(-c3ccc(OC)cc3)n2CCN2CCOCC2)cc1	-1.5
COc1ccc(-c2csc(Nc3ncccn3)n2)cc1C	-0.21
COc1ccc(Cc2nnc(NC(=O)c3ccc(F)cc3)s2)cc1OC	-1.2
O=C(Nc1ccc(-c2nc3cc(NC(=O)c4ccc([N+](=O)[O-])cc4)ccc3o2)cc1)c1ccc([N+](=O)[O-])cc1	1
O=c1c(Cl)c(Cl)cnn1Cc1ccc(Br)cc1	0.23
C=CCN(c1ccccc1)S(=O)(=O)c1ccc(F)c(C(=O)Nc2cccc(C)c2C)c1	-0.49
CCc1cccc(NC(=O)CN(C)S(=O)(=O)c2cccs2)c1	-0.07

Single entries from above:
Entry of COc1ccc(Cc2nnc(NC(=O)c3ccc(F)cc3)s2)cc1OC under Measles inh: -1.2
Entry of CCOc1ccc(-n2c(=O)c3c(C)c(C(=O)N(C)C)sc3n(CC(=O)C(C)(C)C)c2=O)cc1 under Measles inh: -0.4
Entry of COc1ccc(N=c2scc(-c3ccc(OC)cc3)n2CCN2CCOCC2)cc1 under Measles inh: -1.5
Entry of COc1ccc(-c2csc(Nc3ncccn3)n2)cc1C under Measles inh: -0.21
Entry of O=c1c(Cl)c(Cl)cnn1Cc1ccc(Br)cc1 under Measles inh: 0.23

(continued)
SMILES	Measles inh
COC(=O)c1cc(NS(=O)(=O)c2ccc(Cl)c(N3C(=O)C=CC3=O)c2)cc(C(=O)OC)c1	-1.2
Cc1nc(C#N)c(NCc2ccc3c(c2)OCO3)o1	-0.54
COc1ccc(C)cc1NC(=O)c1cn(C)c(=O)c2cc(OC)c(OC)cc12	0.12
COCCCNC(=O)Cn1c(=O)n(Cc2ccccc2)c(=O)c2ccccc21	-1.3
O=C(CSc1nc2c(cnn2-c2ccccc2)c(=O)[nH]1)Nc1ccc(OC(F)(F)F)cc1	0.61
CCCCOC(=O)CN1C(=O)c2ccc(Br)cc2C1=O	-0.62
COc1ccc(N2C(=O)CCC(C(=O)N3CCN(c4ccccc4OC)CC3)C2c2ccc(OC)c(OC)c2)cc1 (configuration not stated)	-0.33
COC(=O)c1cc2c(=O)n3cccc(C)c3nc2n(Cc2cccnc2)c1=N	-0.47
CCOc1ccc(-c2nc(-c3ccc(C)cc3)no2)cc1	0.77
CC1=C(C(=O)OC(C)C)C(c2cccc(Oc3ccccc3)c2)NC(=O)N1 (configuration not stated)	-0.44
O=[N+]([O-])c1ccc(Sc2nc3ccccc3s2)c(Cl)c1	-0.99
CC(C)(C)NC(=O)c1cccc2c1-c1ccccc1C2=O	-0.1
COc1ccc2nc(N3CCC(C(=O)NCc4ccc(C)cc4)CC3)sc2c1	1.3

Screening results as filed in PubChem BioAssay.
